MenB inh – M. tuberculosis MenB inhibitors, primary screen, biochemical, absorbance; 1,4-dihydroxy-2-naphthoyl-CoA synthase (Mycobacterium tuberculosis (strain ATCC 25618 / …; MenB enzyme assay, absorbance read-out; some hits fall short of the stated cut; inhibition, %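 (about 12 µg/mL by stock and volumes)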; 100,000 compounds, 0.43% hits;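 active = mean of two replicates above 30%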;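 also: 0% = no compound and 100% = wells with inactive enzyme; the first replicate is given; strong numbers were not always called active; inactives centre near -10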
MbtI inh – MbtI salicylate synthase inhibitors, primary screen, biochemical, fluorescence intensity. P9WFX0. purified MbtI enzyme, fluorescence intensity read-out. inhibition, %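 (about 17 µg/mL by stock and volumes)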. 100,000 compounds, 0.89% hits. AID 493033, 2011;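 active = above 50% in both replicates, above 80% if mildly self-fluorescent; inactive = the rest, strongly fluorescent compounds included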;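 also: 0% = mean of negative and 100% = mean of positive controls; one replicate is shown; some compounds called inactive have numbers as strong as hits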
Target sequence (P9WFX0 whole entry, looked up): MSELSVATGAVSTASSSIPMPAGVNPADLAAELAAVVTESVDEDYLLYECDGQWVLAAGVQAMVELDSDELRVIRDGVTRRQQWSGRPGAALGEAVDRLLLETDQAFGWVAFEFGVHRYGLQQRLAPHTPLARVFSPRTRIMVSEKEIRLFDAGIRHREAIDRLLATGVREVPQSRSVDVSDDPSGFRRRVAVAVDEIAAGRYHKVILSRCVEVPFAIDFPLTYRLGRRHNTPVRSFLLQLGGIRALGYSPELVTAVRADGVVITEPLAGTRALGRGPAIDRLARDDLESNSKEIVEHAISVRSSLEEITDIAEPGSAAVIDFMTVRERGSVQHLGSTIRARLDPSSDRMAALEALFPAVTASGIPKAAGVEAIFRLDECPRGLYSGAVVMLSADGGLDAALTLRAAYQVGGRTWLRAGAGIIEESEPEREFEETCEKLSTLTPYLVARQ
PV pol inh – poliovirus RdRp elongation inhibitors, primary screen, biochemical, fluorescence polarization, total intensity; Genome polyprotein (Poliovirus type 1 (strain Mahoney)), P03300; poliovirus polymerase elongation; hits give low values; % elongation, % (compound at 16.7 µg/mL); 150,000 compounds, 0.66% hits; in the data active = % elongation below about 90%; also: some results filed as inactive read as strong as hits
Target sequence (P03300 1749-2209 limits assumed): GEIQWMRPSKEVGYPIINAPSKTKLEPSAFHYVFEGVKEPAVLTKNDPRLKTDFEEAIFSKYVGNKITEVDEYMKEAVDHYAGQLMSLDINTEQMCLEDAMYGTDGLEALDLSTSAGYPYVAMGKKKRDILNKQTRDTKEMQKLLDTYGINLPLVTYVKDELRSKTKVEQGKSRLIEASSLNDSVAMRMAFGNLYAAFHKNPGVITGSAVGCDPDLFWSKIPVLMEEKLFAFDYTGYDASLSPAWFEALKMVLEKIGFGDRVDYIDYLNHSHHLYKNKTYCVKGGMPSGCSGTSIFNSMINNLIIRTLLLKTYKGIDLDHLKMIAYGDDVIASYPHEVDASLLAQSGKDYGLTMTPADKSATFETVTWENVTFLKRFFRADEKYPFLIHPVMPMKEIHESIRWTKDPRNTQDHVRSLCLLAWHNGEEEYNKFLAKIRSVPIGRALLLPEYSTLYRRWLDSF
PV pol inh intensity – second read-out of PV pol inh, no call of its own (marks repeat the call); % elongation; measured here: total intensity read-out; formula for this scale not given here;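 total fluorescence in place of polarization; lower means less elongation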
The depositor's hits bear a star; / = no result given; & = joins results of further samples.

The line under a structure holds: MenB inh | MbtI inh | PV pol inh | PV pol inh intensity
NC[C@@H]1O[C@H](O[C@@H]2[C@@H](CO)OC(O[C@@H]3[C@@H](O)[C@H](N)C[C@H](N)[C@H]3O[C@H]3O[C@H](CO)[C@@H](O)[C@H](O)[C@H]3N)[C@@H]2O)[C@H](N)[C@@H](O)[C@@H]1O (stereo not given in full)
→ 10 | -21 | 100 | 101
CCOC(=O)C1CCN(c2ccccc2CN2CCCc3cc(C)ccc32)CC1
→ -9 | -9 | 104 | 102
O=C(CN1C(=O)c2ccccc2C1=O)Nc1cccnc1
→ -6 | 0 | 101 | 100
CC(=O)Nc1ccccc1Br
→ -6 | 5 | 101 | 104
NC(=S)Nc1ccc(OCc2ccccc2)cc1
→ -41 | 9 | 103 | 104
Cn1c(NN)nc2c(c1=O)C1(CCCC1)Cc1ccccc1-2
→ 6 | 14 | 104 | 103
CC1CCC(=C(C#N)C(=O)NCc2ccccc2)CC1 (stereo not given)
→ 2 | / | 100 | 94
CC(C)OC(=O)c1ccc(N)cc1
→ -37 | -6 | 104 | 102
CCN(CC)C(=O)CSc1n[nH]c(=S)s1
→ -10 | 91* | 104 | 105
CCN(CC)S(=O)(=O)c1ccc(NC(=O)COC(=O)Cn2[nH]c(=O)c3ccccc3c2=O)cc1
→ -14 | -6 | 115 | 105
CC1CCCN(C/C(O)=C(\C#N)c2nc3ccccc3[nH]2)C1 (stereo not given)
→ -23 | -13 | 100 | 101
Cc1ccc(Cl)cc1-n1ncc2c(NCC3CCCO3)ncnc21 (stereo not given)
→ -10 | 5 | 100 | 101
OP(Oc1ccccc1)(Oc1ccccc1)=P(O)(Oc1ccccc1)Oc1ccccc1
→ 6 | -3 | 98 | 101
CCOC(=O)C(C)(C)Sc1nc2c(cnn2-c2ccc(Cl)cc2)c(=O)[nH]1
→ -17 | -4 | 101 | 95
C=C1N(c2ccccc2C)C(=O)OC1(C)C
→ -5 | -6 | 102 | 104
NC(=O)N/N=C/c1c(F)c(F)c(F)c(F)c1F
→ -16 | -1 | 103 | 100
COC(=O)CC1C(=O)NCCN1C(=O)Nc1ccccc1 (stereo not given)
→ -2 | -3 | 102 | 107
Clc1cccc(CN2CCN(Cc3ccco3)CC2)c1
→ -3 | / | 94 | 99
COc1cccc(-c2ccc(-c3noc(-c4cccnc4)n3)c(OC)n2)c1
→ -28 | -9 | 101 | 102
O=C(CN1CCCc2ccccc21)Nc1ccc(Cl)c(Cl)c1
→ -14 | / | 102 | 114
C[n+]1cccc(O)c1I
→ -65 | 10 | 101 | 100
COc1ccc(NS(=O)(=O)c2ccc(N)cc2)nn1
→ 4&1 | 2&-14 | 101&102 | 103&102
CCCCc1ccc(NC(=O)COC)cc1
→ -30 | -1 | 100 | 102
CN/C(=C\C(=O)C(F)(F)F)c1ccccc1
→ 2 | 7 | 98 | 103
C/C(CN1C(=O)c2ccccc2C1=O)=N\Nc1ccccc1Cl
→ 12 | 40 | 107 | 112
COC(=O)C1=C(NC(=O)c2ccccc2C)CCS1
→ -13 | 11 | 101 | 101
O=C(c1ccccc1)n1nc(-c2cccnc2)nc1NCc1cccs1
→ -23 | 14 | 103 | 103
O=c1cccc2n1CC1CC2CN(CC(O)CN2CC3CC(C2)c2cccc(=O)n2C3)C1 (stereo not given)
→ -7 | 6 | 101 | 103
Cc1cc(OCCCN2CCCC2)ccc1C(C)C
→ -3 | -14 | 99 | 104
O=C(CSc1nccn1-c1ccccc1)Nc1ccccc1F
→ -4 | -7 | 103 | 107

Complete entries as entered above:
Cc1ccc(Cl)cc1-n1ncc2c(NCC3CCCO3)ncnc21 (stereo not given) as listed: MenB inh = -10; MbtI inh = 5; PV pol inh = 100; PV pol inh intensity = 101
C[n+]1cccc(O)c1I as listed: MenB inh = -65; MbtI inh = 10; PV pol inh = 101; PV pol inh intensity = 100
Clc1cccc(CN2CCN(Cc3ccco3)CC2)c1 as listed: MenB inh = -3; MbtI inh = /; PV pol inh = 94; PV pol inh intensity = 99

The listing continues:
The line under a structure holds: MenB inh | MbtI inh | PV pol inh | PV pol inh intensity
Cc1nnc(NC(=O)CSc2nnc(CNC(=O)c3ccco3)n2-c2cccc(C)c2C)s1
→ -13 | -1 | 101 | 102
Cc1cnc(C(=O)NC(C)CCc2ccccc2)cn1 (stereo not given)
→ / | -4 | 101 | 99
CC(=O)N1CCOCCN(C(C)=O)CCOCC1
→ -12 | 4 | 101 | 104
CN(C)c1ccc(/C=C(/C#N)c2ccc(C#N)cc2)cc1
→ -58 | -15 | 76 | 180
COC(=O)c1sccc1NC(=O)C(C)(C)C
→ -27 | -7 | 101 | 95
NC(=O)CSc1nnc(-c2ccccc2)o1
→ -56 | -13 | 106 | 100
CCc1ccc2c(CSc3nnc(-c4ccco4)o3)cc(=O)oc2c1
→ -8 | 9 | 106 | 98
CCOC(=O)c1cnn(-c2nc(C)cc(C)n2)c1N
→ -23 | 8 | 105 | 107
O=C1C=C(c2ccc(Cl)cc2)OC2(CCCC2)O1
→ -9 | -17 | 101 | 103
Cn1c(COc2ccccc2Br)nc2ccccc21
→ -24 | 2 | 100 | 101
Nn1c(SCc2nnc(-c3ccccc3)o2)nnc1-c1ccncc1
→ 11 | -19 | 102 | 107
Cc1c(Cl)cccc1N1CC(C(=O)O)CC1=O (stereo not given)
→ / | -14 | 101 | 104
O=C(CNC(=O)c1ccccc1Cl)Nc1ccc(S(=O)(=O)N2CCOCC2)cc1
→ -5 | -9 | 102 | 103
CCn1c(Cc2ccc(OC)cc2)nnc1SCC(=O)NC1=NCCS1
→ -14 | -8 | 102 | 103
Cc1ccc(N=C2SCC(=O)N2C)cc1
→ -1 | -5 | 104 | 106
COc1ccc(-c2nc(COc3ccc(Cl)cc3Cl)no2)cc1
→ 6 | 2 | 101 | 103
CNC(=O)CSc1nc(-c2ccccc2)cn1N
→ -14 | 17 | 105 | 111
Cc1ccc2oc(=O)c3cc(C(=O)NCc4cccs4)sc3c2c1
→ -15 | 30 | 106 | 109
NC(=O)NC(CC(=O)N1CCc2ccccc2C1)c1ccc(Cl)cc1 (stereo not given)
→ -11 | -6 | 105 | 110
CCN(CC)C(=O)N[C@@H]1CC2c3cccc4[nH]cc(c34)CC2N(C)C1 (stereo not given in full)
→ -6 | -20 | 99 | 99
N#CC(C#N)=Cc1cccn1CCCn1ccnc1
→ -230 | 11 | 93 | 90
CC1CC(c2ccccc2)n2ncnc2N1 (stereo not given)
→ -8 | / | 110 | 111
CC(CCc1ccccc1)Nc1ccc2c(c1)OCO2 (stereo not given)
→ -28 | -65 | 97 | 117
CC(C(=O)N1CCCCC1)N(C)CC(=O)Nc1ccc(Cl)c(C(F)(F)F)c1 (stereo not given)
→ -14 | -6 | 99 | 89
CN(C)c1ccc(/C=N/S(=O)(=O)c2cccs2)cc1
→ 1 | 2 | 54 | 191
Cc1ccc(/C=N/n2cnnc2)c(C)c1
→ / | -2 | 101 | 100
C[C@]12CCC(=O)C[C@H]1CC(=O)[C@@H]1[C@@H]2CC(=O)[C@]2(C)CCC[C@@H]12 (tested in a mixture with another compound)
→ -2 | -5 | 99 | 102
CC1CCCC(C)N1C(=O)COC(=O)C1CCCCC1 (stereo not given)
→ -2 | 3 | 103 | 98
CCOC(=O)c1c(S(=O)(=O)Nc2ccc(Cl)cc2)c(C)n(-c2ccccc2)c1C
→ -11 | -8 | 103 | 104
c1cc(CSC2=NCCS2)nc(CSC2=NCCS2)c1
→ -17 | -6 | 99 | 97
CN(C)/N=C/c1ccc(C(O)(c2nc3ccccc3s2)C(F)(F)F)o1 (stereo not given)
→ -14 | -3 | 100 | 109
CCN(Cc1ccncc1)S(=O)(=O)c1cc(/C=C/C(=O)O)cc(OC)c1OC
→ 2 | 22 | / | /
CC(C)=CC(=O)NCCc1ccccc1
→ -2 | -9 | 99 | 104
Cn1c(C(=O)O)c(CNCCc2ccco2)c2ccccc21
→ -2 | -133 | 100 | 103
CCC(Cc1ccccc1)NC(=O)c1ccc2c(c1)NC(=O)c1ccccc1S2 (stereo not given)
→ 1 | 13 | 103 | 105
CSc1ccccc1N1C(=O)CC(Sc2ccccc2C(=O)O)C1=O (stereo not given)
→ -15 | 37 | 102 | 102
O=C(c1ccccc1)N1CCc2ccccc21
→ -6 | 9 | 101 | 102
COc1cccc(/C=C(/C(=O)OCC(N)=O)c2ccccc2)c1
→ / | -7 | 101 | 105
CC1(C)C2CC[C@]3(C)C(C(=O)C=C4[C@@H]5C[C@@](C)(C(=O)O)CC[C@]5(C)CC[C@]43C)[C@@]2(C)CC[C@@H]1OC(=O)CCC(=O)O (stereo not given in full)
→ -2 | -4 | 98 | 99
Nn1c(COc2ccccc2)nnc1SCc1cc(=O)[nH]c2ccccc12
→ -7 | -5 | 99 | 103
C=CCNc1oc(-c2ccccc2C)nc1C#N
→ -15 | -351 | 100 | 103
CCN1CCC(N)CC1
→ 8 | 3 | 95 | 106
CN(C)CC(O)COc1ccc(C(C)(C)C)cc1 (stereo not given)
→ 1 | -30 | 102 | 104
COc1ccccc1N1CCN(Cc2cn[nH]c2-c2ccccc2)CC1
→ -16 | -1 | 102 | 103
Cc1ccc(S(=O)(=O)N(C)c2nc3ccccc3nc2N2CCN(Cc3ccccc3)CC2)cc1
→ -1 | -5 | 105 | 110
C=CCn1c(C2CCS(=O)(=O)C2)n[nH]c1=S (stereo not given)
→ 0 | 29 | 100 | 105
O=C1CCN(C(=O)Cc2ccc(NS(=O)(=O)c3ccc(F)cc3)cc2)CC1
→ 8 | -3 | 102 | 105
COc1ccc(/C=C(\C#N)C(=O)OC(C)(C)C)cc1
→ -13 | -7 | 103 | 94
CC1CCCN(C(=O)COC(=O)COc2ccc(Cl)cc2)C1 (stereo not given)
→ / | -3 | 105 | 104
Cc1ccc(OCCc2csc(N)n2)cc1
→ -17 | -5 | 105 | 104
Cc1ccc(CNC(=O)c2ccc(N3CCCS3(=O)=O)cc2)cc1
→ -21 | -8 | 102 | 102
COc1ccc(CN2COc3ccc(OC)cc3C2)cc1
→ 5 | 2 | 100 | 106
CCC1(CO)COC(c2ccco2)OC1 (stereo not given)
→ -13 | -7 | 101 | 103
O=C(Nc1ccccc1)N(Cc1ccco1)Cc1cccs1
→ -7 | -14 | 101 | 102
COCc1c(C(=O)OC2CCOC2=O)oc2ccccc12 (stereo not given)
→ 0 | 115 | 103 | 99
Cn1c(=O)[nH]c(=O)c2c1nc1n2CC(c2ccccc2)=N1
→ -10 | -11 | 105 | 104
CCc1ccc(-n2nc3cc(C)c(NC(C)=O)cc3n2)cc1
→ -7 | -94 | 99 | 100
CCOC(=O)C1=C(C)NC2=C(C(=O)CC(c3ccco3)C2)C1c1ccc(C(F)(F)F)cc1 (stereo not given)
→ -16 | -216 | 101 | 102
CN(C(=O)COc1ncnc2sccc12)c1ccccc1
→ -11 | -18 | 109 | 114
NC(=O)C1(N2CCCCC2)CCN(S(=O)(=O)c2ccc(Cl)s2)CC1
→ 10 | -12 | 100 | 100

(further entries)
The line under a structure holds: MenB inh | MbtI inh | PV pol inh | PV pol inh intensity
CC(=O)Nc1ccc(S(=O)(=O)N2CCC(NC(C)=O)(c3cccc(F)c3)CC2)cc1
→ -4 | 1 | 101 | 103
CCCNC(=O)C1CN(C(=O)c2cnc(C)cn2)c2ccccc2O1 (stereo not given)
→ 5 | -5 | 100 | 102
CNC(=O)NCc1ccc(-c2csnn2)cc1
→ 13 | -4 | 102 | 105
COC(=O)CNc1cc[nH]c(=O)c1C#N
→ -6 | 3 | 101 | 102
Cc1cc(C)c(C(N)=O)c(SCC(=O)Nc2c(C)n(C)n(-c3ccccc3)c2=O)n1
→ -4 | 44 | / | /
c1cncc(-c2nc(NCCSCc3ccco3)c3ccccc3n2)c1
→ -25 | -7 | 105 | 100
O=C(c1cc(-c2ccc(F)cc2)no1)N1CCN(c2cccc(Cl)c2)CC1
→ -4 | 6 | 104 | 102
O=C1S/C(=C/c2ccc3c(c2)OCO3)C(=O)N1CN1CCCCC1
→ -12 | -7 | 101 | 103
O=C(Nc1ccc2c(c1)OCO2)c1c(Cl)nc2ccccn12
→ -17 | -4 | 100 | 108
CCN=C1S/C(=C\c2ccc(OC)c(OC)c2)C(=O)N1CC
→ -5 | -1 | 98 | 97
COCCN(C(=O)Nc1ccccc1OC)c1nc2ccccc2s1
→ 21 | 3 | 101 | 102
CCN(CC)C(=O)c1ccccc1C
→ 15 | -4 | 100 | 103
CC1CCC2(CC1)C(=O)NC(=O)N2C (stereo not given)
→ 9 | 2 | 100 | 97

Reprinted at random: three records from the list.
The line under a structure holds: MenB inh | MbtI inh | PV pol inh | PV pol inh intensity
Nn1c(COc2ccccc2)nnc1SCc1cc(=O)[nH]c2ccccc12
→ -7 | -5 | 99 | 103
CN(C)CC(O)COc1ccc(C(C)(C)C)cc1 (stereo not given)
→ 1 | -30 | 102 | 104
CCN(CC)C(=O)c1ccccc1C
→ 15 | -4 | 100 | 103
